Source: PubChem BioAssay (several laboratories)
VCAM-1 imaging – inhibitors of TNFa-induced VCAM-1 surface display, imaging, high-content imaging, pooled HUVEC, TNFa stimulus (AID 456). HUVEC TNFa-induced VCAM-1 surface expression, immunofluorescence imaging; numbers were filed only for top-ranked candidate wells. one-dose inhibition, % at 5 µM; IC50 in µM for titrated hits. 10,000 tested, 0.2% active;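 active = top tenth filtered wells with inhibition above zero that passed visual or statistical confirmation; inactive = the rest, including hits rejected on review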;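 also: 0% = stimulated vehicle wells and 100% = unstimulated cells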
FPRL1 ligand – binds the human formylpeptide receptor-like-1 FPRL1; FPRL1-expressing cells, fluorescent ligand binding inhibition, flow cytometry; AID 441; inhibition, %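 (tested at 6.7 µM)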; 24,000 tested, 0.3% active; P25090;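 also: 0% = buffer alone and 100% = receptor blocker peptide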
Target sequence (P25090 whole entry, looked up): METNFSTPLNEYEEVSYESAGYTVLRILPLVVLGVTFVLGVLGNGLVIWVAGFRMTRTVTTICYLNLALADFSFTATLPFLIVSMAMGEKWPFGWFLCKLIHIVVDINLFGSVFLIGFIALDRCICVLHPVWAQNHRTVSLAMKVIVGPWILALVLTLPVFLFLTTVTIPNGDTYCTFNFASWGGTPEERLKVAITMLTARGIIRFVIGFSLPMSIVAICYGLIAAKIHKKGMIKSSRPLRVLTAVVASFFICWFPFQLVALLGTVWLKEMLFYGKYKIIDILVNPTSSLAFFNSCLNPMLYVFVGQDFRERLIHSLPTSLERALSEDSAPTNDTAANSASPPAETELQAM
VCAM-1 down – inhibitors of TNFa-induced VCAM-1 surface display, cell-based, plate reader, pooled HUVEC, TNFa stimulus (AID 454); 10,000 tested, 0.2% active; HUVEC TNFa-induced VCAM-1 surface immunofluorescence, plate reader; numbers were filed only for top-ranked candidate wells; inhibition, % at 5 µM;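 active = compound among top-ranked inhibitors of TNF-induced VCAM-1 adhesion protein staining, with the hit upheld by image or statistical review; inactive = the rest, including hits rejected on review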;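 also: 0% = TNFa with vehicle and 100% = cells without TNFa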
VCAM-1 up imaging – enhancers of VCAM-1 display on endothelial cells, imaging, high-content imaging, pooled HUVEC, TNFa stimulus (AID 457). Pooled HUVEC, TNFa-induced VCAM-1 immunofluorescence imaging; hits of this screen are not shown here. calls only. 10,000 tested, 0.2% active;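 active = a top-ranked rise in VCAM-1 staining upheld on image or statistical review; inactive = the rest, including candidates rejected on review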;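 also: compounds tested at 5 µM in the well; cells exposed to compound for 24 hours before fixing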
FPR ligand – binds the human formylpeptide receptor FPR; FPR-expressing cells, fluorescent ligand binding, flow cytometry; inhibition, %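 (tested at 6.7 µM)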; 24,000 tested, 0.74% active; AID 440; P21462;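 also: 0% = buffer wells and 100% = receptor blocker peptide wells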
Target sequence (P21462 whole entry, looked up): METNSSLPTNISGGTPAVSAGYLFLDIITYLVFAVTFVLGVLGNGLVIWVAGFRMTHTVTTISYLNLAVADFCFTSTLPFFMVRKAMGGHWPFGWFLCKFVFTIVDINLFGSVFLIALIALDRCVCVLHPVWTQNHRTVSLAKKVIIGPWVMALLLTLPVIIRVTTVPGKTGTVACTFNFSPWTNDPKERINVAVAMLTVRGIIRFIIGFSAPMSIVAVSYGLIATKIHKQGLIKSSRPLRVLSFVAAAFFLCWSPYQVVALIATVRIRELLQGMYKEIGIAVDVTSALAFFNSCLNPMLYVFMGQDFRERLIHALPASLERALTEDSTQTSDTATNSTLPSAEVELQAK
Starred values were filed as active, the others as inactive; i = inactive; x = no result given.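 The calls were made as follows, unless noted: active = mean above 30%; inconclusive = self-fluorescent; inactive = the rest.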 This is a subset; the hit share may differ from the screen's.

Order of values: VCAM-1 imaging | FPRL1 ligand | VCAM-1 down | VCAM-1 up imaging | FPR ligand
O=C(c1cc(-c2ccc3c(c2)OCO3)on1)N1CCOCC1
 : x | -2 | x | x | -2
O=C(Nc1nc2c(s1)CCCC2)C1COc2ccccc2O1 (stereo not drawn)
 : i | 4 | i | i | 9
O=C(O)C1CC=CCC1C(=O)Nc1cccc(C(=O)N2CCCCC2)c1 (stereo not drawn)
 : i | 1 | i | i | 1
O=C(c1ccc(CS(=O)(=O)c2ccc(Br)cc2)o1)N1CCN(c2ccccn2)CC1
 : x | -4 | x | x | 4
COC(=O)CN1C(=O)C2(C(C#N)=C(N)Oc3n[nH]c(-c4cccs4)c32)c2ccccc21 (stereo not drawn)
 : x | -1 | x | x | 0
CCCCOC(=O)CSC1=C(C#N)C(c2ccccc2OCC)C(C#N)C(=O)N1 (stereo not drawn)
 : x | -1 | x | x | 5
Nc1nc(Nc2ccccc2Br)nc(C(F)(F)F)n1
 : x | -2 | x | x | -7
COc1ccc(CNS(=O)(=O)c2ccc3oc(C(=O)O)c(C)c3c2)cc1
 : i | 1 | i | i | 2
O=C(c1cccc(Cl)c1)N1CCN(Cc2ccncc2)CC1
 : i | -3 | i | i | -7
COCCNC(=O)CN1C(=O)CSc2cc(S(=O)(=O)N3CCCCCC3)ccc21
 : x | -1 | x | x | 0
COC(=O)c1c(NC(=O)CSc2nnnn2C)sc(C)c1C
 : i | -2 | i | i | -1
Cn1cnc2c1c(=O)[nH]c(=O)n2C
 : i | 2 | i | i | 8
O=C(NCCN1CCCC1)c1ccc(Cn2c(=S)[nH]c3cc4c(cc3c2=O)OCO4)cc1
 : x | 1 | x | x | 1
CCOCC(=O)Nc1nc2ccc(OC)cc2s1
 : i | 0 | i | i | 0
CCN(CCCNC(=O)CCn1c(=O)[nH]c2ccccc2c1=O)c1cccc(C)c1
 : x | 3 | x | x | -2
O=C(NCCCN1CCN(c2cccc(Cl)c2)CC1)c1ccc(N2CCCC2=O)cc1
 : i | 4 | i | i | 17
Cc1cc2cc(CNC(=O)CCC(=O)O)ccc2[nH]1
 : x | 2 | x | x | -2
O=C(CC1Oc2ccccc2NC1=O)NCc1ccccc1 (stereo not drawn)
 : x | 8 | x | x | -2
Cc1oc(-c2cccc(Cl)c2)nc1CN1CCC(C(=O)NCC2CCCO2)CC1 (stereo not drawn)
 : x | 1 | x | x | -3
CC1(C)Cc2c(sc3ncnc(N)c23)CO1
 : i | 5 | i | i | 3
CCOC(=O)c1cnc2cc3c(cn2c1=O)CCCC3
 : x | -2 | x | x | -2
Cc1nc(C)c(C(=O)NCc2ccc(Cl)cc2)o1
 : x | -6 | x | x | 1
COCC(=O)Nc1c(C(=O)Nc2cccc(OC)c2)oc2ccccc12
 : x | -3 | x | x | 1
CCOc1ccc(-n2c(C)nc3cc(C(=O)NCCCN4CCOCC4)ccc32)cc1
 : x | -1 | x | x | -5
CCn1c(=O)cc(SCC(=O)NCCCN2CCN(c3ccccc3F)CC2)c2ccccc21
 : x | 7 | x | x | -13
CC1CC(C)CN(Cc2nc3c(c(=O)n(C)c(=O)n3C)n2Cc2ccccc2Cl)C1 (stereo not drawn)
 : i | -1 | i | i | -5
Cc1ccc(-c2ccc(=O)n(CC(=O)NCCCN3CCCCC3C)n2)cc1 (stereo not drawn)
 : i | 4 | i | i | -4
CCN(c1ccc(OC)cc1)S(=O)(=O)c1ccc2c(c1)CCN2C(=O)CCC(=O)O
 : i | -2 | i | i | 1
Cc1ccc(C)c(/C(O)=C2/C(=O)C(=O)N(CCN3CCOCC3)C2c2ccc(C)o2)c1 (stereo not drawn)
 : x | -2 | x | x | 0
CC(=O)Nc1ccc(Oc2cc(C#N)c(C#N)cc2N2CCCCCC2)cc1
 : i | -2 | i | i | 8
O=S(=O)(NC1CCCC1)c1ccc(S(=O)(=O)N2CCc3ccccc32)cc1
 : i | -1 | i | i | -8
CN(C)Cc1cn(CCC(=O)O)c2ccccc12
 : i | 13 | i | i | 0
C=CCN1C(=O)/C(=C2/Sc3ccccc3N2C)SC1=Nc1c(C)n[nH]c1C
 : i | -3 | i | i | 2
CCCCOc1ccc(C(=O)CCN2CCCCC2)cc1
 : i | -6 | i | i | 2
COc1cc(C2C(C(=O)c3ccc(C)o3)=C(O)C(=O)N2c2cc(C)on2)ccc1O (stereo not drawn)
 : x | -5 | x | x | -15
O=C1CC(c2ccccc2)C(C(=O)O)N1 (stereo not drawn)
 : x | 12 | x | x | 13
O=C(CSc1nnc(C2COc3ccccc3O2)o1)N1CCCCC1 (stereo not drawn)
 : x | -1 | x | x | -3
Cc1ccc(-n2nc3c(c2NC(=O)c2ccc4c(c2)OCO4)CS(=O)C3)cc1 (stereo not drawn)
 : x | 1 | x | x | 2
COC(=O)Cn1c(=NC(=O)CSCC(=O)NC2CCCCC2)sc2cc(OC)ccc21
 : x | -6 | x | x | 1
CC(C)c1[nH]nc2c1C(c1cccc(OC(=O)N3CCOCC3)c1)C(C#N)=C(N)O2 (stereo not drawn)
 : x | 11 | x | x | 3
CCOC(=O)c1oc2ccccc2c1NC(=O)COC
 : i | -5 | i | i | -9
CC(C)CCNC(=O)c1cnn2c(C(F)(F)F)cc(-c3ccco3)nc12
 : x | -7 | x | x | 4
CC(=O)c1c(C)[nH]c(C(=O)N2CCCCCC2)c1C
 : x | -4 | x | x | 6
CCOc1ccc(CCNC(=O)C2CCN(C(=O)N(C)C)CC2)cc1OCC
 : x | 2 | x | x | 2
Cc1noc(NS(=O)(=O)c2ccc(NC(=O)CSc3ncccn3)cc2)c1C
 : x | -1 | x | x | 4
O=C(NCCN1CCN(C(=O)c2cc3ccccc3oc2=O)CC1)c1cc2ccccc2oc1=O
 : x | -1 | x | x | 2
CCOc1ccc(C(=O)Cc2ccc3oc(C(=O)O)cc3c2)c(O)c1
 : i | 0 | i | i | -2
COc1cc(C(=O)NCc2cn3ccccc3n2)cc(OC)c1OC
 : x | -5 | x | x | -6
O=C(NCc1ccc2c(c1)OCO2)C1CC(=O)N(C2CCCCCC2)C1 (stereo not drawn)
 : x | -1 | x | x | 2
CC1CC(C)CN(C(=O)CSc2nnc(-c3ccc(F)cc3)o2)C1 (stereo not drawn)
 : x | -1 | x | x | -4
CCOC(=O)c1oc2ccc(S(=O)(=O)N3CCOCC3)cc2c1C
 : x | 0 | x | x | -1
Cc1ccc(CNC(=O)c2cc3c(-c4ccc(Cl)cc4)nn(C)c3s2)o1
 : x | -9 | x | x | -4
Cc1nn(C)c(C)c1S(=O)(=O)N(CC(=O)NCCCOC(C)C)c1ccc(C(C)C)cc1
 : x | 4 | x | x | 5
CC(=O)c1ccc(NC(=O)CN2C(=O)COc3ccc(Cl)cc32)cc1
 : x | 0 | x | x | 3
Cn1c(=O)[nH]c(=O)c2c1nc(N1CCCCC1)n2CCSc1ncccn1
 : i | 2 | i | i | 0
COc1ccccc1-n1cnc(N)c1C(C)=O
 : i | 4 | i | i | 5
COC(=O)c1ccc(CSc2nc3c(c(=O)n2-c2ccc(Br)cc2)SCC3)o1
 : x | 1 | x | x | 1
CC1CCCCC1NC(=O)CN(C)S(=O)(=O)c1cccc2nsnc12 (stereo not drawn)
 : x | 0 | x | x | -6
O=C(NCCc1cn2ccccc2n1)c1ccccc1F
 : x | 3 | x | x | 10
N#CC1=C(N)N(c2ccc(Br)cc2)C2=C(C(=O)CCC2)C1c1cccnc1 (stereo not drawn)
 : x | 2 | x | x | -2

Individual results from the results shown:
O=C1CC(c2ccccc2)C(C(=O)O)N1 (stereo not drawn) in FPRL1 ligand → 12
CN(C)Cc1cn(CCC(=O)O)c2ccccc12 in FPR ligand → 0

(more compounds)
Order of values: VCAM-1 imaging | FPRL1 ligand | VCAM-1 down | VCAM-1 up imaging | FPR ligand
O=C1c2ccccc2C(O)N1c1ccc(Cl)cc1 (stereo not drawn)
 : x | 4 | x | x | -6
CC(C(=O)O)C1SC(=O)NC1=O (stereo not drawn)
 : x | 9 | x | x | -2
CCc1ccc(NC(=O)c2noc3c2CCCCC3)cc1
 : x | -2 | x | x | -1
O=C(NCCN1CCCCCC1)c1ccc(N2CCCC2=O)cc1
 : i | -9 | i | i | 0
CCCCN(CCCC)CCn1cnc2c([nH]c3ccc(OC)cc32)c1=O
 : i | 0 | i | i | 1
CN(c1nnc(N)s1)C1CCCCC1
 : x | 4 | x | x | -3
CCOc1ccc(S(=O)(=O)Nc2ccccc2C(=O)Nc2ccccc2N2CCOCC2)cc1
 : i | -4 | i | i | 15
NC(=O)N1c2ccccc2C=Cc2ccccc21
 : i | -4 | i | i | -9
Cc1ccccc1NC(=O)CC1SC(=NC2CCCCC2)NC1=O (stereo not drawn)
 : x | -4 | x | x | -8
CC(=O)Nc1ccc(S(=O)(=O)NC(CC(=O)NC2CCCCC2C)C(C)C)cc1 (stereo not drawn)
 : x | 1 | x | x | 5
COc1ccc(OC)c(-c2cc(C(=O)NCCN3CCOCC3)no2)c1
 : x | 3 | x | x | 0
Cc1cc(C)cc(-n2nnc(C(=O)NCc3ccccc3Cl)c2N)c1
 : x | 8 | x | x | -1
O=C(c1c[nH]c2ccc(S(=O)(=O)N3CCC4(CC3)OCCO4)cc2c1=O)N1CCOCC1
 : x | 13 | x | x | 4
Cn1c(=O)c(C(=S)NC(=O)C2CC2)c(N)n(Cc2ccccc2)c1=O
 : i | 1 | i | i | 3
Cc1ccc(CNC(=O)CCCNS(=O)(=O)c2cccc3nonc23)cc1
 : x | 3 | x | x | -2
Cc1ncoc1C(=O)Nc1cccc(Cl)c1C
 : i | 3 | i | i | 0
CC(=O)Nc1nonc1-n1nnc(C(=O)NCc2ccccc2)c1C
 : x | -6 | x | x | -3
COc1ccc(C(=O)N2CCN(c3ccc(C)cc3C)CC2)cc1OC
 : x | -4 | x | x | 1
COc1cc(NC(=O)NC(C)(C(F)(F)F)C(F)(F)F)cc(OC)c1OC
 : i | -3 | i | i | -7

Among those listed so far, ten contain a Cl atom.
Order of values: VCAM-1 imaging | FPRL1 ligand | VCAM-1 down | VCAM-1 up imaging | FPR ligand
O=C(c1cccc(Cl)c1)N1CCN(Cc2ccncc2)CC1
 : i | -3 | i | i | -7
O=C(NCCCN1CCN(c2cccc(Cl)c2)CC1)c1ccc(N2CCCC2=O)cc1
 : i | 4 | i | i | 17
Cc1oc(-c2cccc(Cl)c2)nc1CN1CCC(C(=O)NCC2CCCO2)CC1 (stereo not drawn)
 : x | 1 | x | x | -3
Cc1nc(C)c(C(=O)NCc2ccc(Cl)cc2)o1
 : x | -6 | x | x | 1
CC1CC(C)CN(Cc2nc3c(c(=O)n(C)c(=O)n3C)n2Cc2ccccc2Cl)C1 (stereo not drawn)
 : i | -1 | i | i | -5
Cc1ccc(CNC(=O)c2cc3c(-c4ccc(Cl)cc4)nn(C)c3s2)o1
 : x | -9 | x | x | -4
CC(=O)c1ccc(NC(=O)CN2C(=O)COc3ccc(Cl)cc32)cc1
 : x | 0 | x | x | 3
O=C1c2ccccc2C(O)N1c1ccc(Cl)cc1 (stereo not drawn)
 : x | 4 | x | x | -6
Cc1cc(C)cc(-n2nnc(C(=O)NCc3ccccc3Cl)c2N)c1
 : x | 8 | x | x | -1
Cc1ncoc1C(=O)Nc1cccc(Cl)c1C
 : i | 3 | i | i | 0
